Source: PubChem
ELG1 genotoxic: induces genotoxicity in HEK293T cells with luciferase-tagged ELG1 | HEK293T ELG1-luciferase reporter, luminescence, 16 h | Potency, µM (highest dose often 46 µM), for the others: at the top dose activity change, positive = activation, hits mostly activators | 330,000 compounds, 1.3% hits | AID 504466; also: potency is read from the fitted curve at half-maximal effect; % of control where 0% means no effect; nearly all actives have a fitted effect of over 60% in size
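DMSO vehicle served as control against compound-treated ELG1-luciferase HEK293T cells; exposure lasted 16 hr at 37 °C and 5% CO2, followed by ONE-Glo luminescence detection after 30 min.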
Giardia killer: kills Giardia lamblia | Giardia lamblia trophozoite viability | activity change, % at 7.66 µM, hits read low | AID 540267 | 340,000 compounds, 0.15% hits; in the data active = activity change below about -80%; inconclusive = between about -30% and that limit;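 also: parasites exposed to compound for two days anaerobically before the ATP read; % is scaled to controls: 0 for no effect and ±100 for the full control effect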
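Anaerobic 48 hrs incubation at 37 deg C of 100 trophozoites/well with test compounds; ATPLite 1-Step luminescence, 15-30 min RT, reports cellular ATP as viability.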
p53 reactivator: re-activators of mutant p53 | H1299 p53-A138V BP100-luciferase reporter, luminescence, 24 h | 320,000 compounds, 0.063% hits | Potency, µM (doses to about 92.2 µM), inactives show top-dose activity change, positive = activation, hits mostly activators; also: potency is read from the fitted curve at half-maximal effect; % of control where 0% means no effect; nearly all actives have a fitted effect of over 45% in size
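H1299 (p53-null), stable ts p53-A138V + BP100-Luc; 1000 cells/well, Opti-MEM/10% FBS; cpd 4 pt, 1:5; 24 h, 37 deg C, 5% CO2; detection reagent 10 min RT; luminescence.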
Gal4-VP16 FLuc: inhibits Gal4-VP16 luciferase reporter, ROR gamma counter-screen. Drosophila S2 Gal4-VP16 UAS-luciferase, luminescence, 20 h. Potency, µM (highest dose often 53.6 µM), for inactives: at the highest dose activity, negative = inhibition, hits mostly inhibitors. 310,000 compounds, 3.5% hits. AID 2546;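 also: Gal4-VP16 expression switched on by copper sulfate through the metallothionein promoter; potency is read from the fitted curve at half-maximal effect; % is scaled to controls: 0 for no effect and ±100 for the full control effect; nearly all actives have a fitted effect of over 50% in size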
Rab9 promoter act: activators of Rab9 promoter; Huh7 Rab9 promoter-luciferase reporter, luminescence, 24 h; Potency, µM (top dose mostly 9.22 µM), for inactives: at the highest dose activation, negative = inhibition, usual class: activators; 320,000 compounds, 2.8% hits; AID 485297; also: potency is read from the fitted curve at half-maximal effect; % of control where 0% means no effect; nearly all actives have a fitted effect of over 60% in size
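Promoter activation is measured as luciferase luminescence in Huh7 cells stably transfected with a Rab9 promoter–luciferase construct, following 24 h compound exposure at 37 °C and 10 min reagent incubation at ambient temperature.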
RORgamma inh: inhibitors of mouse ROR gamma transcriptional activity | P51450 | Drosophila S2 Gal4-RORgamma UAS-luciferase reporter, 20 h | Potency, µM (highest dose often 53.6 µM), for the others: at the top dose activity change, negative = inhibition, actives largely listed as inhibitors | 310,000 compounds, 5.4% hits; also: potency is read from the fitted curve at half-maximal effect; % is scaled to controls: 0 for no effect and ±100 for the full control effect; nearly all actives have a fitted effect of over 60% in size
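Read-out: Photinus luciferase luminescence; inhibitors lower reporter signal. Insect Schneider cells with Gal4-ROR gamma fusion under metallothionein promoter, UAS reporter; 700 uM final copper sulfate induction, 20 hr, ambient temperature.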
BRCA1 expr act: increases BRCA1 expression. 380,000 compounds, 1.1% hits. Potency, µM (titrated, usually from 46.1 µM), for inactives: at the highest dose activation, most hits filed as activators. MCF7-BRCA1-FFLuc reporter, luminescence, 48 h; response scale: scaled: vehicle 0%, 10 µM genistein 100%; also: potency is read from the fitted curve at half-maximal effect; nearly all actives have a fitted effect of over 80% in size; some results filed as inactive show a strong effect at the top dose
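MCF7-BRCA1-FFLuc cells, 2000/well in phenol-red-free MEM, attached 2 h then treated 48 h at 37 C. Luciferase luminescence read 15 min after reagent; normalized to genistein maximum activation (10microM) and DMSO, concentration-response fitted.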
Menin MLL FP TR: menin-MLL binding inhibition, Texas Red mutant peptide | Menin + Texas Red MLL mutant peptide, fluorescence polarization | Potency, µM (series often up to 61.6 µM), inactives show at the top dose FP activity change, negative = inhibition, usual class: inhibitors | O00255 | 270,000 compounds, 0.23% hits | AID 1768; active = well fitted inhibition curve with a large enough effect in the polarisation, with a control signal flat, not every such curve was filed as active; inconclusive = small, poorly fitted or top-dose-only effect, or effect the other way, or a change in a side signal; inactive = no such curve, though single readings can be large or run the other way; the % refers to the polarisation; also: potency is read from the fitted curve at half-maximal effect; % of control where 0% means no effect; many of its hits are not listed in these tables
NPC1 prom act: activates the NPC1 promoter; Potency, µM (series often up to 9.22 µM), without a hit: at the highest dose activation, hits mostly activators; 320,000 compounds, 2.4% hits; Huh7 NPC1 promoter luciferase reporter, 24 h;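 also: potency is read from the fitted curve at half-maximal effect; % of control where 0% means no effect; nearly all actives have a fitted effect of over 60% in size; reporter is driven by a mutant NPC1 promoter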
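Stable NPC1-promoter luciferase Huh7 line; cpd (DMSO) 24 h, 37 °C, 5% CO2; Amplite luciferase reagent 10 min RT; luminescence readout. qHTS format.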
FLuc modulator: inhibits or activates purified firefly luciferase, miR-21 counter-screen; Potency, µM (highest dose often 57.5 µM), for the others: at the highest dose activity change, negative = inhibition, usual class: inhibitors; purified FLuc, Km substrates, luminescence inhibition; P08659; 360,000 compounds, 6.9% hits;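 also: potency is read from the fitted curve at half-maximal effect; plate controls were vehicle for no effect and reference inhibitor for full effect; nearly all actives have a fitted effect of over 55% in size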
Target sequence (P08659 whole entry, looked up): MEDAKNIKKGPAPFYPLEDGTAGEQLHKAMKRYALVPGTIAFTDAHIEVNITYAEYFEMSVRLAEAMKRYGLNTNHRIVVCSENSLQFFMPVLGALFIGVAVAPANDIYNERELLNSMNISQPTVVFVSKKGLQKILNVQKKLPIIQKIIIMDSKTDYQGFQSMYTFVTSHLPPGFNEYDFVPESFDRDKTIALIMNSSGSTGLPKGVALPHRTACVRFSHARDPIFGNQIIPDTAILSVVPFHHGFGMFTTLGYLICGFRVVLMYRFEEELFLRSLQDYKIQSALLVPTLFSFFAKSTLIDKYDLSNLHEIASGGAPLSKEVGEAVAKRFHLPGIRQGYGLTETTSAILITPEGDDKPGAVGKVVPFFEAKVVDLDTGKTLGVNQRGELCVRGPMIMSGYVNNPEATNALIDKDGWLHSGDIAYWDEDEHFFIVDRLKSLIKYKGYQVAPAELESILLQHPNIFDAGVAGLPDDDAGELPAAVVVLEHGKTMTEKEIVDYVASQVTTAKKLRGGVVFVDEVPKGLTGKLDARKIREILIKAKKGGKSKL
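Purified P. pyralis luciferase (10nM final) with 10uM D-luciferin and 10uM ATP (Km levels) in 50mM Tris acetate pH 7.5, 10mM Mg acetate, 0.01% Tween-20, 0.05% BSA; qHTS 6-point titration, ~60 µM downward; luminescence read.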
* = called active by the depositor; ? = inconclusive; / = not tested or not shown; [ ] = another dose, or the depositor's remark. Unless noted, calls follow the shape of the dose curve; as a rule, active = well fitted curve in the direction sought with a large enough effect; inconclusive = small, poorly fitted or top-dose-only effect, or another doubt; inactive = no such curve, though single readings can be large; an effect the other way counts as inactive or inconclusive. An excerpt, so the mix of outcomes need not match the whole.

Results follow in this order: ELG1 genotoxic | Giardia killer | p53 reactivator | Gal4-VP16 FLuc | Rab9 promoter act | RORgamma inh | BRCA1 expr act | Menin MLL FP TR | NPC1 prom act | FLuc modulator
1) Cc1ccc(C(=O)COC(=O)CNC(=O)c2ccco2)cc1
    2% | -2 | -7% | -4% | -2% | 3% | 1%[1.84 µM] | 13% | -8% | -15%
2) Cc1ccc(S(=O)(=O)N2CCC(=O)N(C(COCc3cccc(C)c3)Cc3ccccc3)CC2)cc1 (stereo not drawn)
    -2% | 26 | -10% | -19% | -7% | 28% | -41% | -4% | -4% | 1%
3) COc1ccc(C(=O)Nc2ccc(S(=O)(=O)Nc3nccc(C)n3)cc2)cc1OC
    13% | -25 | -13% | 10% | -3% | 10% | 0% | -12% | 7% | 0%
4) COC(=O)c1c(-c2cccs2)csc1NC(=O)c1cccnc1
    6% | -2 | ? | 0% | ? | 18% | 75% | 6% | 28% | 17µM*
5) CCOc1ccc2nc(SCCNS(=O)(=O)c3ccccc3)sc2c1
    1% | -18 | 12% | ? | 0% | ? | -68% | 11% | -1% | ?
6) O=C(NCc1cccnc1)Nc1ccccc1F
    2% | 6 | 8% | 19% | 5% | -39% | 11% | 14% | 1% | -9%
7) CNC(=O)/C(C#N)=C/c1c(F)cccc1Cl
    12% | -7 | 15% | ? | -4% | ? | -3% | 7% | -4% | -3%
8) O=C(CNC(=O)[C@@H]1Cc2ccccc2CN1)Nc1ccc2c(c1)OCCO2
    ? | -12 | 3% | 5% | 3% | 4% | 43% | -8% | -2% | ?
9) c1coc(-c2nnc3n2C2(CCCC2)Cc2ccccc2-3)c1
    -2% | -7 | 22% | -5% | -3% | -12%[0.365 µM] | 1% | -3% | 1% | -10%
10) COc1ccc(C(=O)C2CCCN(C(=O)c3cnsn3)C2)c(C)c1 (stereo not drawn)
    -3% | -12 | -1% | 0% | 1% | 14% | -16% | / | -1% | -4%
11) CC(=O)c1ccc(NC(=O)c2ccc3snnc3c2)cc1
    15µM* | -4 | 14% | 17% | 4µM* | ? | ? | 4% | 4.5µM* | ?
12) O=C(C1CCCCC1)N1CCCn2c1nc1ccccc12
    2% | 5 | 5% | / | -1% | 31%[0.365 µM] | 40% | 4% | -2% | 2%
13) O=C(COC(=O)c1ccc(Br)o1)Nc1ncc(Cl)cc1Cl
    5% | -10 | 1% | 6% | 0% | -6% | -2% | -21% | -2% | 1%
14) COc1cccc(N(CC(=O)N/N=C(\C)c2cccs2)S(C)(=O)=O)c1
    -1% | 4 | 1% | 0% | -1% | 0% | -13% | 15% | -2% | 6%
15) CCc1ccc(NC(=O)CSc2n[nH]c(C)c2[N+](=O)[O-])cc1
    0% | -12 | 3% | -2% | -1% | 7% | 17% | -7% | 2% | -15%
16) CCOC(=O)C1=C(O)C(=O)N(CCCn2ccnc2)C1c1ccc(OC)cc1 (stereo not drawn)
    0% | / | -4% | -20% | -4% | 1% | / | -4% | 0% | -4%
17) O=C(NC1CCN(Cc2nnnn2CCc2ccccc2)CC1)c1ccccc1F
    4% | 0 | 0% | -14% | -5% | -11% | 1% | -8% | 1% | 1%
18) CCC(=O)N1c2ccccc2[C@@H](N(C(C)=O)c2ccccc2)C[C@H]1C
    23µM* | 7 | 1% | 8% | 14% | -21% | -95%[inhibitor] | ? | 2% | 0%
19) CCOP(=O)(OCC)/C(=N/OC(=O)c1cccc([N+](=O)[O-])c1)C(N)=O
    -3% | 2 | 3% | -13% | 0% | -14% | -15% | / | -2% | -3%
20) COC(=O)c1ccc(/C=N\NC(=O)c2c(C)nc3ccc(Cl)cn23)cc1
    -1% | 21 | 14% | -17% | 9% | -2% | -5% | 0% | -21% | 0%
21) O=C(NCc1ccccc1)c1ccc(CS(=O)(=O)c2ccc(Br)cc2)o1
    -4% | 21 | -7% | -4% | -5% | 31% | -10% | ? | 3% | -1%
22) Cc1ccc(Nc2ncnc(N)n2)cc1
    17% | ? | 6% | -5% | ? | 0% | 88% | 3% | 14% | ?
23) COc1ccc(Nc2cccccc2=O)cc1
    3% | 16 | 23% | 15% | 22% | 0% | ? | -11% | 29% | ?
24) CCN(CC)c1ccc(/C=N/NC(=O)c2c(-c3ccccc3)noc2C)cc1
    -43%[inhibitor] | -8 | 4% | ? | 3% | 11µM* | -22% | -1% | 2% | -2%

Some of the entries so far, screen by screen.
5: CCOc1ccc2nc(SCCNS(=O)(=O)c3ccccc3)sc2c1
6: O=C(NCc1cccnc1)Nc1ccccc1F
7: CNC(=O)/C(C#N)=C/c1c(F)cccc1Cl
8: O=C(CNC(=O)[C@@H]1Cc2ccccc2CN1)Nc1ccc2c(c1)OCCO2
9: c1coc(-c2nnc3n2C2(CCCC2)Cc2ccccc2-3)c1
10: COc1ccc(C(=O)C2CCCN(C(=O)c3cnsn3)C2)c(C)c1 (stereo not drawn)

assay / entry	5	6	7	8	9	10
ELG1 genotoxic	1%	2%	12%	?	-2%	-3%
Giardia killer	-18	6	-7	-12	-7	-12
p53 reactivator	12%	8%	15%	3%	22%	-1%
Gal4-VP16 FLuc	?	19%	?	5%	-5%	0%
Rab9 promoter act	0%	5%	-4%	3%	-3%	1%
RORgamma inh	?	-39%	?	4%	-12%[0.365 µM]	14%
BRCA1 expr act	-68%	11%	-3%	43%	1%	-16%
Menin MLL FP TR	11%	14%	7%	-8%	-3%	/
NPC1 prom act	-1%	1%	-4%	-2%	1%	-1%
FLuc modulator	?	-9%	-3%	?	-10%	-4%
